High-throughput results: PubChem, ICCB-Longwood Screening Facility, Harvard Medical School
Ab BasE inh – blocks the Acinetobacter baumannii siderophore enzyme BasE; 84,000 compounds, 0.1% hits; purified BasE, fluorescence polarization binding displacement; inhibition, % (concentration not given with the values);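 active means both replicates above 25% with normal brightness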;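 further: 0% = negative plate control signal and 100% = positive plate control signal; stock transfer was 100 nL into about 30 µL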
LANA-nucl inh – LANA-nucleosome interaction inhibition; FITC-LANA1-23 / chicken nucleosome fluorescence polarization; stronger effect = lower value; z-score (test concentration not listed); 51,000 compounds, 0.3% hits; AID 720717;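 active means both repeat wells score below -2 in polarization z-score versus plate sample wells, excluding overly bright wells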;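 further: 100 nL library stock added to about 30 µL; numbers are from one replicate; some results filed as inactive read as strong as hits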
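Material: Purified chicken nucleosomes with FITC-labelled LANA N-terminal peptide (1-23) | Reagent: 50 nM FITC-LANA1-23 probe | Medium: TEN-BT buffer, pH 7.5 | Times: 10–45 min incubation at room temperature | Detection: Fluorescence polarization | Replication: Duplicates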
An asterisk follows results filed as active; . = not tested or not shown; & = joins results of further samples. Only part of the results is shown (hit frequency here may not be typical).

SMILES	Ab BasE inh	LANA-nucl inh
CCC(=O)c1ccccc1OCCCn1cnc2ccccc2c1=O	0.7	-0.33
CCOC(=O)C(=O)c1c(O)[nH]c2ccccc12	1.4	-0.8
Clc1ncnc2ccsc12	3.2	.
COc1ccc(C2(NC(=O)c3ccc(Cn4cc(Cl)cn4)o3)CCCCC2)cc1	0.9	-0.66
CCOc1ccc(N2CC(C(=O)OC(C)C(=O)c3ccccc3)CC2=O)cc1 (stereo not given)	1.6	0.25
Oc1ccccc1C(C#Cc1ccccc1)N1CCOCC1 (stereo not given)	-0.7	0.35
CN(CC(=O)Nc1ccc(Cl)cc1)CC(=O)Nc1ccc(C(N)=O)cc1	-1.7	.
CC(C(N)=O)N1C(=O)c2cccc3cccc1c23 (stereo not given)	0.8	1.6
Nc1ccc(Cc2nc3ccccc3[nH]2)cc1	0.0	0.019
CC(NC(=O)c1cc2c(s1)CS(=O)(=O)C2)c1ccccc1 (stereo not given)	0.6	0.59
CC(=O)N1Cc2ccccc2CC1C(=O)NCc1ccc2c(c1)OCO2 (stereo not given)	2.2	.
COc1cc2[nH]c(=S)nc(NCc3cccnc3)c2cc1OC	0.5	-0.13
CC(=O)N1CCc2cc(S(=O)(=O)NCCC(=O)Nc3nc4ccc(C)cc4s3)ccc21	0.4	0.1
Cc1nn(Cc2ccc(Cl)cc2)c(C)c1S(=O)(=O)N(C)C	-0.8	.
COc1ccc(C(=O)N/C(=C\c2ccccc2)C(=O)NCc2ccco2)cc1	1.9	-0.17
CC(C)(C)NC(=O)Nc1ccc(Cl)cc1	1.6	.
CCN(CC)c1ccc(NC(=S)NC(C)C)cc1	1.7	.
COc1cccc(Oc2ccc(C(F)(F)F)cc2NC(=O)CSCC(=O)Nc2cc(C)on2)c1	-0.1	.
CCN(CC)C(=O)Nc1ccc(OC)cc1	1.1	.
CC1CCCN(c2nnc(NC(=O)NCc3ccccc3)s2)C1 (stereo not given)	0.8	0.068
COc1ccc(OCC(O)CNC(=O)c2ccccc2C(=O)O)cc1 (stereo not given)	0.7	.
CC(C(=O)NC1CCCc2ccccc21)N1CCN(c2ccc(F)cc2)CC1 (stereo not given)	1.5	.
CCn1c(C)c(C)c2cc(C(=O)NC3CCCC3)ccc21	0.4	0.11
CCc1ccc2c(CN3CC(C)OC(C)C3)cc(=O)oc2c1 (stereo not given)	1.3	.

Some of these compounds in order of SMILES length, highest first:
SMILES	Ab BasE inh	LANA-nucl inh
COc1cccc(Oc2ccc(C(F)(F)F)cc2NC(=O)CSCC(=O)Nc2cc(C)on2)c1	-0.1	.
CC(=O)N1CCc2cc(S(=O)(=O)NCCC(=O)Nc3nc4ccc(C)cc4s3)ccc21	0.4	0.1
COc1ccc(C2(NC(=O)c3ccc(Cn4cc(Cl)cn4)o3)CCCCC2)cc1	0.9	-0.66
COc1ccc(C(=O)N/C(=C\c2ccccc2)C(=O)NCc2ccco2)cc1	1.9	-0.17
CN(CC(=O)Nc1ccc(Cl)cc1)CC(=O)Nc1ccc(C(N)=O)cc1	-1.7	.
CC(C(=O)NC1CCCc2ccccc21)N1CCN(c2ccc(F)cc2)CC1 (stereo not given)	1.5	.
CC(=O)N1Cc2ccccc2CC1C(=O)NCc1ccc2c(c1)OCO2 (stereo not given)	2.2	.
CC(NC(=O)c1cc2c(s1)CS(=O)(=O)C2)c1ccccc1 (stereo not given)	0.6	0.59
COc1ccc(OCC(O)CNC(=O)c2ccccc2C(=O)O)cc1 (stereo not given)	0.7	.
COc1cc2[nH]c(=S)nc(NCc3cccnc3)c2cc1OC	0.5	-0.13
CC1CCCN(c2nnc(NC(=O)NCc3ccccc3)s2)C1 (stereo not given)	0.8	0.068
CC(C(N)=O)N1C(=O)c2cccc3cccc1c23 (stereo not given)	0.8	1.6
Oc1ccccc1C(C#Cc1ccccc1)N1CCOCC1 (stereo not given)	-0.7	0.35
CCN(CC)c1ccc(NC(=S)NC(C)C)cc1	1.7	.
Nc1ccc(Cc2nc3ccccc3[nH]2)cc1	0.0	0.019
CC(C)(C)NC(=O)Nc1ccc(Cl)cc1	1.6	.
CCN(CC)C(=O)Nc1ccc(OC)cc1	1.1	.

Going on with the list.
SMILES	Ab BasE inh	LANA-nucl inh
CCC(Oc1ccccc1Cl)C(=O)O (stereo not given)	-1.3	0.18
O=C(NCC1COc2ccccc2O1)C12CC3CC(CC(O)(C3)C1)C2 (stereo not given)	1.8	.
CCOc1ccc(C(=O)NC2CC2)c(OCC)c1	3.9	-1.2
Cc1noc(C)c1CSCC(=O)OCc1nnc(-c2ccccc2Br)o1	-0.3	.
c1ccn(-c2ccc(N3CCOCC3)cc2)c1	-0.7	0.22
Brc1cc2c(cc1CSc1nc3ncccc3[nH]1)OCO2	2.7	0.5
CC(C)(C)n1nc(-c2ccc(Cl)cc2)c(C#N)c1N	.	0.65
Clc1ccc(CN2COc3c(cc(Cl)c4cccnc34)C2)cc1	.	0.072
O=C(NCCCN1CCCC1)c1csc2c1CCCC2	-3.9	0.59
O=C(COc1ccc(Br)cc1)NCCCN1CCCC1=O	1.3	.
O=C(Nc1ccc2[nH]ccc2c1)c1ccc(F)cc1	-1.3	.
c1cnc2nc(-c3ccc4c(c3)OCCO4)cn2c1	1.2	.
CCNc1nc(-c2ccc(Br)cc2)cs1	-1.1	0.12
C/C(Cn1c(=O)oc2ccccc21)=N\OC(=O)Nc1ccccc1	-1.2	-0.61
CC(C)(C)C(N)=O	-0.8	.
c1nc(SCc2ccon2)c2c3c(sc2n1)CCC3	2.1	.
CC(C)Oc1ccc(CNC(=O)CCS(=O)(=O)c2ccc3c(c2)CC(=O)N3C)cc1	-1.1	.
O=C(NN1CCOCC1)c1cccc(COc2cccc(Br)c2)c1	-4.5	.
CCc1ccc2ncc(S(=O)(=O)c3ccccc3)c(N3CCOCC3)c2c1	-2.2	-0.097
COc1ccccc1C1CC(C(F)(F)F)n2ncc(C(=O)O)c2N1 (stereo not given)	0.0	-0.3
C=C1c2cc(CC)ccc2NC(=O)N1c1ccccc1	-0.7	.
CN1CCN(C(=O)c2ccc(C3SCC(=O)N3Cc3ccco3)cc2)CC1 (stereo not given)	2.4	-0.95
COc1ccccc1N(C(=O)CN1C(=O)C2C3C=CC(C3)C2C1=O)C1=NCCCS1 (stereo not given)	-0.4	.
Cc1nn(-c2ccccc2)nc1CNC(=O)c1cc(F)cc2c1OCOC2	-0.7	.
Cc1nn(Cc2ccccc2Cl)c(Cl)c1C(=O)OC1CCOC1=O (stereo not given)	-1.7	.
COc1ccc(CN(C(C)=O)c2ccccc2C(=O)O)cc1	0.6	.
CCc1ccc(N2CCN(C(=O)c3ccc4c(c3)OCO4)CC2)cc1	5.1	-1.3
CC(C(=O)Nc1ccc(S(N)(=O)=O)cc1)N1C(=O)C2C3C=CC(C3)C2C1=O (stereo not given)	1.1	0.64
CCc1ccc(-c2cc(C)no2)cc1S(=O)(=O)N1CCN(c2ccccc2OC)CC1	2.4	.
COc1cc2cc(C(=O)c3ccccc3O)cnc2cc1OC	3.2	.
CCN(c1cccc(C)c1)S(=O)(=O)c1cc2c3c(c1)CCN3C(=O)CC2	2.0	-1.1
Cc1sc2c(c1C)C(=O)NC(c1cccc(O)c1)N2 (stereo not given)	2.4	.
FC(F)(F)c1ccccc1-c1ncc(-c2ccccc2)o1	1.1	.
COc1ccc(S(=O)(=O)N2CCN(C(=O)C(C)Oc3ccc(F)cc3)CC2)cc1 (stereo not given)	1.3	.
CSc1nc2ccccc2n1CN(C)Cc1ccccc1	2.6	.
CCOC(=O)c1c(C)oc2c1c1c(c3ccccc32)OCN(C2CCCC2)C1	0.9	.
CCOc1cc(/C=N/NC(=O)c2ccc(CSc3nncn3C)cc2)ccc1OCC(=O)N1CCOCC1	0.8	.
CSCCC(=O)Nc1ccccc1I	9.1	.
CC12C=CC(=O)C1(C)C(=O)C=C2 (stereo not given)	3.9	-0.32
O=C(CC1CCCC1)Nc1c(C(=O)Nc2ccccc2)oc2ccccc12	0.1	1.5
COc1ccc2[nH]c3c(c2c1)CCNC3C1CC=C(C)CC1 (stereo not given)	-2.1	.
C[N+]1(C)C[C@@H](O)C[C@H]1C(=O)[O-]	-3.6	2.2
O=C(O)/C=C/C(=O)NC1CCCCC1NC(=O)/C=C/C(=O)O (stereo not given)	2.0	-0.32
CC(C)(C)c1cc(C(=O)NCc2ccc(C#N)cc2)n(Cc2ccccc2)n1	1.0	.
COc1cc2c(cc1OC)C(C(=O)N1CCCCCC1)C1c3ccccc3CCN1C2=O (stereo not given)	3.8	-0.088
COc1ccc2c(c1)n1nnnc1c1nnnn21	-0.4	0.79
CC(C)Cc1ccc(C(=O)C(C)N2CCN(c3ccc(C(F)(F)F)cn3)CC2)cc1 (stereo not given)	0.9	-0.71
N#Cc1nc(-c2ccccc2)cc(-c2ccccc2)n1	0.9	-0.69
O=C(NC1CCCCCC1)c1ccc2c(c1)OCO2	0.7	.
N#Cc1cc2c(nc1SCC(=O)N1CCOCC1)CCC2	1.0	0.083
CCNCc1ccc(OCC)c(OC)c1	-1.1	.
COc1ccc(-c2nc(SC(CC(=O)NCCN3CCOCC3)c3ccc(OC)cc3)n[nH]2)cc1 (stereo not given)	-2.7	0.13
CCN(CC)S(=O)(=O)c1ccc(NC(=O)c2ccccc2Cl)cc1	3.5	.
O=C(O)c1snc2c(=O)[nH]cnc12	0.8	-0.84
CC1=CC(C)(C)N2C(=O)C3(OCCO3)c3cc(C)cc1c32	4.7	-0.43
CCOc1cccc(/C=N/N2C(C)CCCC2C)c1O (stereo not given)	0.7	.
Cc1c(C(=O)OCC2=NC3SC4=C(CCCC4)C3C(=O)N2)oc2ccccc12 (stereo not given)	1.7	.
COc1cccc2c1cc1c(=O)n(CC(=O)NCCc3ccc(S(N)(=O)=O)cc3)nc(C)n12	-2.2	-0.97
O=C(c1cccnc1Cl)N1N=C2/C(=C/c3ccco3)CCCC2C1c1ccco1 (stereo not given)	1.5	.
O=C(N/N=C/c1ccc(O)cc1)Nc1cccc2nsnc12	-2.8	2.4

Later entries
SMILES	Ab BasE inh	LANA-nucl inh
CCOc1ccccc1C(=O)NC(C(=O)NCc1ccco1)C(C)C (stereo not given)	-2.7	.
O=C(O)C(Cc1c[nH]c2ccccc12)N1C(=O)c2ccccc2C1=O (stereo not given)	1.1	.
COc1ccc(NC(=O)OCC(F)(F)C(F)F)cc1	0.8	.
C=CCNC(=O)c1ccc(NS(=O)(=O)CC)cc1	1.0	0.11
O=C(CSc1ncnc2ccccc12)c1ccc[nH]1	0.6	.
O=C(CCC(=O)Nc1ccccc1)Nc1ccccc1	4.2	0.7
COc1cccc(C(=O)NCCO)c1OC	-1.4	0.92
COc1ccc(Cl)cc1N(C(C)=O)c1nc(C)cc(C)c1C#N	-1.0	-0.31
O=C(OCC(=O)c1ccccc1)C1=COCCO1	0.8	.
CNC(=O)C1=NCCCc2cc(OC)c(OC)cc21	0.2	.
O=C(COC(=O)c1ccc2c(c1)OCO2)Nc1ccc(S(=O)(=O)N2CCCC2)cc1	0.5	.
CC(C)(C)c1ccccc1OCC(=O)O	-0.8	-0.09
Cc1cccc(-c2nc(C)c(CCC(C)C)c(=O)[nH]2)c1	2.7	-0.13
CC(C)(CSc1ccccn1)NS(=O)(=O)c1ccccc1	1.8	-0.54
Cc1ccc(NC(=O)CC2(CC(=O)O)CCCC2)cc1	1.8	-0.33
CC(C)=NNC(=S)NC1CC2CCC1C2 (stereo not given)	1.6	-0.25
CC(Sc1nnc(-c2ccco2)n1-c1ccccc1)C(=O)NC(c1ccccc1)c1ccccc1 (stereo not given)	-1.9	1.5
COc1ccc(OC)c2c(=O)cc(C(=O)O)oc12	-0.5	.
Cn1cc(Br)c(-c2ccc(NC(=O)Nc3ccccc3)cc2)n1	0.9	-0.88
COC(=O)c1cn[nH]c1N	0.9	-0.34
CCN(c1cccc2ccccc12)S(=O)(=O)c1ccccc1	-2.2	.
COc1ccccc1CNC(=O)COc1ccc(-n2ccnc2)cc1	1.9	.
O=C1CCN(c2ccccc2)N1CCOc1ccc(Cl)cc1Br	1.0	-0.6
O=S(=O)(NCc1cc(F)cc2c1OCOC2)c1cccc2nonc12	-0.6	0.63
NC[C@@H]1O[C@H](O[C@@H]2[C@@H](CO)OC(O[C@@H]3[C@@H](O)[C@H](N)C[C@H](N)[C@H]3OC3O[C@H](CN)[C@@H](O)[C@H](O)[C@H]3N)[C@@H]2O)[C@H](N)[C@@H](O)[C@@H]1O (stereo not given in full)	-1.9	-0.59&-1.6
OC1CCC(Nc2ccnc3cc(Cl)ccc23)CC1 (stereo not given)	-0.3	.
NNC(=O)N/N=C/c1ccc(I)cc1	1.7	-0.3
Nc1cccc(Cl)c1F	0.3	.
Cc1nn(-c2ccccc2)c2c1-c1sc(C(=O)N3CCCC3)cc1CC2	-2.0	-0.18
CC(C)(CNc1nnnn1-c1ccccc1)N1CCOCC1	0.0	.
CCOc1ccccc1NC(=O)Cc1ccc(OCc2c(C)noc2C)cc1	-2.6	.
COc1ccccc1O	.	-0.5
O=C(O)COc1cc(Br)c(Br)c(Br)c1O	-0.9	.
CCCCNC(=O)C1OCCc2ccccc21 (stereo not given)	0.2	0.29
CC(C(=O)NCC1(c2ccccc2)CCOCC1)N1CCCCC1 (stereo not given)	-0.7	0.61
CCc1ccc(C(=O)CSc2nnc(CN3CCCC3)n2Cc2ccccc2)s1	-7.8	.
CCCN(CCC)S(=O)(=O)c1ccc(-c2nc3ccc(C)cc3o2)cc1	.	0.089
CN(c1ccc(O)cc1)c1nc(-c2cccs2)cs1	1.4	-0.12
C=C(C)CN=c1scc(-c2ccco2)n1/N=C/c1cccnc1	0.9	.
O=C(O)C[C@H](O)C[C@H](O)/C=C/c1c(C2CC2)nc2ccccc2c1-c1ccc(F)cc1	.	-0.13
